Screens as filed in PubChem.
NPYLR7 agonist = mosquito NPYLR7 agonism | HEK293T NPYLR7/Galpha15, GCaMP6s calcium fluorescence | activation, % at 10 µM | 0.15% of 270,000 active | AID 1259423; in the data active means activation above about 40%;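 further: 0% = vehicle and 100% = reference agonist at the receptor; some compounds past the cut are filed as inactive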
NPYLR7 agonist max-min = further read-out of NPYLR7 agonist, marked with its call; activation, %; measured here: Max-Min RFU normalised activation; some inactives read as strong as hits;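 span of the calcium signal over five minutes; 0% = vehicle and 100% = native peptide agonist; compound fluorescence can raise it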
Active calls of the source: *; & = joins results of further samples. Some of the compounds tested (hit frequency here may not be typical).

Preview, two compounds:
`Cc1cc(C(=O)NCCN2CC(C)OC(C)C2)nn1-c1ccccc1` (configuration not stated) gave NPYLR7 agonist 3 and NPYLR7 agonist max-min 2.
Screening COc1cccc(-c2nc(=S)c3c([nH]2)Oc2ccccc2C3)c1 returned NPYLR7 agonist 7 and NPYLR7 agonist max-min 6.

Main list, previewed entries included:
`Cc1cc(C(=O)NCCN2CC(C)OC(C)C2)nn1-c1ccccc1` (configuration not stated) gave NPYLR7 agonist 3 and NPYLR7 agonist max-min 2.
Screening COc1cccc(-c2nc(=S)c3c([nH]2)Oc2ccccc2C3)c1 returned NPYLR7 agonist 7 and NPYLR7 agonist max-min 6.
`CC(=O)C1=CCC(NC(=O)c2cc3c(=O)n(C)c(=O)n(C)c3n2Cc2ccccc2)C=C1` (configuration not stated) gave NPYLR7 agonist 0 and NPYLR7 agonist max-min -1.
CC(C)N(CC1CC1)C(=O)c1csc(-c2ccsc2)n1 was read as NPYLR7 agonist 1 and NPYLR7 agonist max-min 1.
For CNC(=O)C1(C)CCN1C(=O)Cc1cc(F)ccc1F (configuration not stated) the results were NPYLR7 agonist -3 and NPYLR7 agonist max-min -5.
CCC(C)C(=O)Nc1nc(-c2ccc(Cl)cc2)c(C)s1 (configuration not stated) was read as NPYLR7 agonist 0 and NPYLR7 agonist max-min 0.
For CC(C)NCc1cc(Cl)ccc1OCc1nc(CO)cs1 the results were NPYLR7 agonist -8 and NPYLR7 agonist max-min -4.
Screening N#CC1C(=N)Oc2c([nH]c(=O)[nH]c2=O)C1c1ccccc1 (configuration not stated) returned NPYLR7 agonist 4 and NPYLR7 agonist max-min 2.
`COc1ccccc1CSc1nnc(-c2ccco2)n1-c1cccc(C(F)(F)F)c1` gave NPYLR7 agonist 2 and NPYLR7 agonist max-min 7.
COC(=O)NC1(C(F)(F)F)Oc2ccc(Cl)cc2O1 (configuration not stated) was read as NPYLR7 agonist 2 and NPYLR7 agonist max-min 2.
`Cc1cc([N+](=O)[O-])nn1CC(=O)Nc1ccccc1C(F)(F)F` gave NPYLR7 agonist -2 and NPYLR7 agonist max-min -7.
Screening COc1ccc(S(=O)(=O)Nc2cccc(-c3ccc(N4CCCCCC4)nn3)c2)c(OC)c1 returned NPYLR7 agonist 7 and NPYLR7 agonist max-min 6.
For O=S1(=O)CCC(Nc2nc(-c3ccsc3)nc3ccccc23)C1 (configuration not stated) the results were NPYLR7 agonist -4 and NPYLR7 agonist max-min 3.
Cc1ccc(Cl)c(NC(=O)c2cccc(CN3CC[C@H](O)C3)c2)c1 was read as NPYLR7 agonist -3 and NPYLR7 agonist max-min -3.
Screening COc1ccc(OC2CCN(C(C)=O)CC2)c(C(=O)NCc2cccs2)c1 returned NPYLR7 agonist 16 and NPYLR7 agonist max-min 5.
CC(C)Nc1ccc(C(=O)N[C@@H](C)[C@H](O)c2ccccc2)cn1 was read as NPYLR7 agonist -9 and NPYLR7 agonist max-min -17.
For C=CCn1c(=O)c2c(nc3n2CC(C)CN3c2ccc(OC)cc2)n(C)c1=O (configuration not stated) the results were NPYLR7 agonist 21 and NPYLR7 agonist max-min 10.
For O=C(CC1CC2CCC1C2)NCc1ccccc1N1CCOCC1 (configuration not stated) the results were NPYLR7 agonist 8 and NPYLR7 agonist max-min 2.
For O=C1C[C@H]2CC[C@@H](CN1)N2C(=O)CCN1CCCCO1 the results were NPYLR7 agonist 3 and NPYLR7 agonist max-min 1.
For CC(C)Cc1ncc2c(n1)CN(C(=O)C[C@@H]1C[C@@H]3C=C[C@H]1C3)C2 the results were NPYLR7 agonist -3 and NPYLR7 agonist max-min -10.
`Nc1cc(OC(F)F)c(Br)cc1[N+](=O)[O-]` gave NPYLR7 agonist 13 and NPYLR7 agonist max-min 11.
COc1cc2c(cc1OC)C(CC#N)=NC(C)(C)C2 was read as NPYLR7 agonist -3 and NPYLR7 agonist max-min -1.
Screening CCCc1nc(C)sc1C(=O)N1CCCC1c1nnc2c(C(F)(F)F)cccn12 (configuration not stated) returned NPYLR7 agonist -5 and NPYLR7 agonist max-min -13.
For CCc1nc2c(OCc3ccc(OC)cc3)cccn2c1N(C)C(=O)c1ccco1 the results were NPYLR7 agonist 11 and NPYLR7 agonist max-min -1.
`CCc1cn[nH]c1C1CCCN(C(=O)c2[nH]c3c(C)ccc(C)c3c2C)C1` (configuration not stated) gave NPYLR7 agonist 2 and NPYLR7 agonist max-min 1.
CCc1nc2ccc(C(=O)Nc3cccc(OCC(=O)N(C)C)c3)cn2c1N(C=O)CCC(C)C was read as NPYLR7 agonist -2 and NPYLR7 agonist max-min -4.
Screening C[N+]1(C)CCC(C2c3ccccc3CSc3sccc32)CC1 (configuration not stated) returned NPYLR7 agonist 2 and NPYLR7 agonist max-min 0.
Screening O=C(c1ccc(Cl)nc1)N1CCC(c2nc(-c3cccnc3)no2)CC1 returned NPYLR7 agonist 6 and NPYLR7 agonist max-min 17.
Screening Cc1ccc(-c2nnc(CN(C)c3ccccc3)o2)cc1 returned NPYLR7 agonist 18 and NPYLR7 agonist max-min 17.
CCn1ncc(C(=O)N(C)CCc2nc3ccc(OC)cc3[nH]2)c1C was read as NPYLR7 agonist -2 and NPYLR7 agonist max-min -2.
`COc1ccc(NCc2nn3cc(-c4ccc(OC)c(OC)c4)c4c3n2CCCC4)c(OC)c1` gave NPYLR7 agonist 1 and NPYLR7 agonist max-min -3.
N#CC(C#N)=C1C=C(c2cccs2)Oc2ccccc21 was read as NPYLR7 agonist 1 and NPYLR7 agonist max-min 8.
Screening Cc1cc(=O)[nH]c2nnc(SCC(=O)N3CC(C)OC(C)C3)n12 (configuration not stated) returned NPYLR7 agonist -11 and NPYLR7 agonist max-min -8.
Screening CCN(CC)c1ccc(CN)cc1F returned NPYLR7 agonist 13 and NPYLR7 agonist max-min 4.
Screening CSc1nc(NC2CCCC2)c([N+](=O)[O-])c(NC2CCCC2)n1 returned NPYLR7 agonist 22 and NPYLR7 agonist max-min 14.
For COc1cccc(C(=O)N2CCN(c3cc(Oc4ccc(F)c(F)c4)ncn3)CC2C)c1 (configuration not stated) the results were NPYLR7 agonist 3 and NPYLR7 agonist max-min 7.
For CCOC(=O)[C@H]1C[C@]2(CCCCN(CCO)C2=O)N(C(=O)c2cccc(C#N)c2)[C@H]1c1ccco1 the results were NPYLR7 agonist 5 and NPYLR7 agonist max-min 13.
For COc1ccccc1CN1CCC(CN(CC(C)C)C(=O)Cc2[nH]nc3ccccc23)CC1 the results were NPYLR7 agonist 18 and NPYLR7 agonist max-min 5.
CCOC(=O)CSc1nc2c(c(=O)n1-c1ccc(OC(F)(F)F)cc1)SCC2 was read as NPYLR7 agonist -3 and NPYLR7 agonist max-min -8.
`CCc1nc2ccc(C(=O)NCCNC(C)=O)cn2c1N(C)Cc1ccc(OC)cc1` gave NPYLR7 agonist -2 and NPYLR7 agonist max-min -8.
`Cc1c(C(=O)OCc2ccccc2F)nnn1-c1ccccc1` gave NPYLR7 agonist -4 and NPYLR7 agonist max-min -19.
For COC(=O)C1C(=O)CSC1=Nc1ccccc1Cl (configuration not stated) the results were NPYLR7 agonist -3 and NPYLR7 agonist max-min 10.
`Cc1ccc(C)c(NC(=O)Cc2n[nH]c(=O)c3ccccc23)c1` gave NPYLR7 agonist 7 and NPYLR7 agonist max-min 3.
`CCc1[nH]n(-c2ccc(Cl)cc2)c(=O)c1C1=C([n+]2cccc(C)c2)C(=O)N(c2ccc(OC)cc2)C1=O` gave NPYLR7 agonist 14 and NPYLR7 agonist max-min 15.
`CN1C(=O)C(=CC=Cc2c3oc4ccccc4cc-3c3ccccc23)C(=O)N(C)C1=O` gave NPYLR7 agonist -4 and NPYLR7 agonist max-min -4.

An excerpt from above in order of formula weight, smallest number first.
Screening Cc1ccc(-c2nnc(CN(C)c3ccccc3)o2)cc1 returned NPYLR7 agonist 18 and NPYLR7 agonist max-min 17.
For CC(C)Cc1ncc2c(n1)CN(C(=O)C[C@@H]1C[C@@H]3C=C[C@H]1C3)C2 the results were NPYLR7 agonist -3 and NPYLR7 agonist max-min -10.
CC(C)Nc1ccc(C(=O)N[C@@H](C)[C@H](O)c2ccccc2)cn1 was read as NPYLR7 agonist -9 and NPYLR7 agonist max-min -17.
Screening CSc1nc(NC2CCCC2)c([N+](=O)[O-])c(NC2CCCC2)n1 returned NPYLR7 agonist 22 and NPYLR7 agonist max-min 14.
For CCc1nc2c(OCc3ccc(OC)cc3)cccn2c1N(C)C(=O)c1ccco1 the results were NPYLR7 agonist 11 and NPYLR7 agonist max-min -1.
`CCc1nc2ccc(C(=O)NCCNC(C)=O)cn2c1N(C)Cc1ccc(OC)cc1` gave NPYLR7 agonist -2 and NPYLR7 agonist max-min -8.

Looked up one by one from above (2):
Cc1ccc(Cl)c(NC(=O)c2cccc(CN3CC[C@H](O)C3)c2)c1 was read as NPYLR7 agonist -3 and NPYLR7 agonist max-min -3.
`COc1ccccc1CSc1nnc(-c2ccco2)n1-c1cccc(C(F)(F)F)c1` gave NPYLR7 agonist 2 and NPYLR7 agonist max-min 7.

The listing continues:
For CCn1c(=O)c2c(nc3n(-c4ccc(C(F)(F)F)cc4)c(C)c(C)n23)n(C)c1=O the results were NPYLR7 agonist 2 and NPYLR7 agonist max-min 4.
Screening Cc1ccc(F)c(Oc2cc(N3CCN(C(=O)c4ccc(F)cc4)C(C)C3)ncn2)c1 (configuration not stated) returned NPYLR7 agonist 13 and NPYLR7 agonist max-min 14.
For COc1cc(=O)n(-c2ccccc2)nc1C(=O)N1CCCC1 the results were NPYLR7 agonist 3 and NPYLR7 agonist max-min 1.
Screening Cc1nc(C(F)(F)F)ccc1C(=O)N1CCCCCC1(C)C(=O)NCC(C)C (configuration not stated) returned NPYLR7 agonist 1 and NPYLR7 agonist max-min -1.
`O=C(Nc1cccnc1)C1CCN(c2ccc(-c3ccccc3)nn2)CC1` gave NPYLR7 agonist -3 and NPYLR7 agonist max-min -9.
Screening CCN(CC)S(=O)(=O)c1ccc(-c2nc(C#N)c(NCc3cccnc3)o2)cc1 returned NPYLR7 agonist -1 and NPYLR7 agonist max-min 11.
CCOC(=O)C(c1cc(OC)ccc1OC)C1C=CC(NC(=O)/C=C/c2cccc(C(F)(F)F)c2)C1 (configuration not stated) was read as NPYLR7 agonist 4 and NPYLR7 agonist max-min 3.
For O=C(NC1=NCCS1)c1cc(-c2cccs2)nn1-c1ccccc1 the results were NPYLR7 agonist 4 and NPYLR7 agonist max-min 2.
`CCN(CC)CCNc1nc2ccc(Cl)cc2s1` gave NPYLR7 agonist 4 and NPYLR7 agonist max-min 3.
For CC(C)(C)Nc1nc(-c2cc(F)ccc2F)cs1 the results were NPYLR7 agonist -2 and NPYLR7 agonist max-min -2.
`COCCNC(=O)c1c(NC(=O)c2cccc([N+](=O)[O-])c2)sc2c1CCCC2` gave NPYLR7 agonist 6 and NPYLR7 agonist max-min 6.
Screening CCOc1ccc(NC(=O)CC2Nc3cccc4cccc(c34)NC2=O)cc1 (configuration not stated) returned NPYLR7 agonist -3 and NPYLR7 agonist max-min 3.
CS(=O)(=O)N1CCCC(C(=O)c2cccc(Cl)c2)C1 (configuration not stated) was read as NPYLR7 agonist 4 and NPYLR7 agonist max-min 5.
For CSc1ccc(C(=O)NCCc2c[nH]c3ccc(O)cc23)c(-c2cccc(F)c2)c1 the results were NPYLR7 agonist -8 and NPYLR7 agonist max-min -13.
For CCCOC1CCCN(C(=O)CC(=O)Nc2ccc(C)cc2C)C1 (configuration not stated) the results were NPYLR7 agonist 9 and NPYLR7 agonist max-min 6.
Screening Cc1ncc(C)c(N2CC[C@@H](c3ccc4ccccc4c3)[C@H](O)C2)n1 returned NPYLR7 agonist 28 and NPYLR7 agonist max-min 18.
`O=C(NC(c1ccccc1)c1ccc2ccccc2n1)C1CCN(Cc2ccc(Oc3ccccc3)cc2)CC1` (configuration not stated) gave NPYLR7 agonist 13 and NPYLR7 agonist max-min 6.
For COc1ccc(C(=O)N2CCC(CCC(=O)NC3CCN(Cc4ccccc4)C3)CC2)cc1 (configuration not stated) the results were NPYLR7 agonist 4 and NPYLR7 agonist max-min 1.
`c1ccc(CSc2nncn3c2cc2occc23)nc1` gave NPYLR7 agonist 1 and NPYLR7 agonist max-min -3.
For COC(=O)[C@H]1C[C@@H](O)CCN1S(=O)(=O)c1ccc(F)cc1F the results were NPYLR7 agonist -4 and NPYLR7 agonist max-min -5.
`CN(Cc1cccc(C(=O)Nc2cccc(F)c2F)c1)CC1CCCO1` (configuration not stated) gave NPYLR7 agonist 4 and NPYLR7 agonist max-min 1.
`OCC1(CCOc2ccccc2)CCN(Cc2ccncc2)CC1` gave NPYLR7 agonist 10 and NPYLR7 agonist max-min 13.
CN1CCCN(c2nc(C(F)(F)F)nc3cc4c(cc23)OCO4)CC1 was read as NPYLR7 agonist 4 and NPYLR7 agonist max-min 2.
Screening O[C@@H](c1cc(C(F)(F)F)nc2c(C(F)(F)F)cccc12)[C@H]1CCCCN1 returned NPYLR7 agonist -8 and NPYLR7 agonist max-min -12.
CCn1ccnc1CN(C)c1cc(C2CCCNC2)nc(C)n1 (configuration not stated) was read as NPYLR7 agonist 4&10 and NPYLR7 agonist max-min 3&8.
`CS(=O)(=O)c1cnn2cc(CN3CCCC3c3ccc(F)cc3)cnc12` (configuration not stated) gave NPYLR7 agonist -6 and NPYLR7 agonist max-min -6.
`C=CCNC(=O)CN1CCN(C(=O)Cn2c(C)cc3ccccc32)CC1` gave NPYLR7 agonist 4 and NPYLR7 agonist max-min 4.
For Clc1ccc2oc(SCc3cn4cc(Cl)ccc4n3)nc2c1 the results were NPYLR7 agonist 5 and NPYLR7 agonist max-min 3.
For Cc1cc(CN2CCC=C(CCNS(=O)(=O)C3CC3)C2)no1 the results were NPYLR7 agonist -4 and NPYLR7 agonist max-min -9.
Screening COc1c(Cl)cc(NC(=O)NC(CCO)C2CC2)cc1Cl (configuration not stated) returned NPYLR7 agonist 1 and NPYLR7 agonist max-min -2.
